# High-throughput results (PubChem BioAssay)
# UUG fidelity: modulators of start codon recognition fidelity in yeast; S. cerevisiae UUG-firefly luciferase reporter, luminescence/redox ratio; activity score, % at 18.7 µM; 350,000 compounds, 0.13% hits; AID 602363;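 active means replicate mean at a twofold rise or more, about +100% in these data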;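 further: firefly luciferase made from a UUG start codon reports start codon fidelity; reporter light over untreated wells divided by growth signal over untreated wells; some hits fall short of that in this replicate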
# CSC inhib: blocks cancer stem cells; cancer stem cell-like cells viability, luminescence; inhibition, % at 7.5 µM; 300,000 compounds, 1.1% hits;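 active means mean at 75% or more and at least half the replicates too; inconclusive means mean and replicates disagree; tested in HMLE shEcad cells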;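 further: 0% = median of negative and 100% = median of positive control wells; the first replicate is given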
# MT1-MMP act inh: blocks activation of human MT1-MMP | AID 651647 | P50281 | 360,000 compounds, 0.061% hits | GFP/RFP ratio change, % at 20 µM | HT1080 RFP-PRO-GFP cells, GFP/RFP ratio fluorescence, overnight; percent of plate control window, DMSO zero;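 active means GFP/RFP ratio change of at least 30% with cell ATP level not reduced by more than half and red fluorescence within 50% of control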; further: strong numbers were not always called active
#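 Assay system: HT1080 RFP-PRO-GFP cells. Benchmarks: DMSO vehicle wells and RFP-L50D-GFP reporter cell wells. Times: overnight cell settling, then overnight compound exposure, 37 °C, 5% CO2. Compound: 20 µM single dose, 1% DMSO. Read-out basis: GFP/RFP fluorescence ratio.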
# PABP FP inh: blocks human PABP binding to poly(A) RNA | fluorescence polarization | inhibition, % at 35 µM | 290,000 compounds, 1% hits;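 active means 50% or more with normal probe brightness, or confirmed in later tests; inconclusive means above 50% with abnormal brightness, or retests that disagree; inactive means below 50% or failed in later tests; about a fifth of its hits are not listed in these tables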;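 further: calls also rest on retests at 20 µM and on dose response follow-up; controls were probe without protein and protein plus probe with vehicle; some compounds called inactive have numbers as strong as hits; many hits fall short of the cut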
# HIV Env fusion: inhibitors of HIV Env-mediated cell fusion | HeLa-JRFL Env/CEM21 cell fusion, luciferase | inhibition, % at 12.3 µM | 360,000 compounds, 1.1% hits | AID 651610;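 active means mean replicate inhibition score of at least 50 and every replicate individually at or above 50; inconclusive means only one of the two criteria met; inactive means mean below 50 and not all replicates reaching 50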;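 further: 0% = plate neutral controls and 100% = maraviroc near 300 nM; one replicate is shown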
# Rce1 inh: blocks yeast Ras-converting enzyme; 290,000 compounds, 0.27% hits; calls only; Q03530; yeast membranes, quenched prenylated peptide cleavage fluorescence;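 active means fall in fluorescence gain of 50% or more versus controls, with final raw signal at or below 3038400; inconclusive means same 50% fall but final raw signal above 3038400; inactive means fall in fluorescence gain under 50%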;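 further: plate controls were neutral control wells for no effect and wells lacking membranes for full effect; tested at 10 µM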
# Target sequence (Q03530 whole entry, looked up): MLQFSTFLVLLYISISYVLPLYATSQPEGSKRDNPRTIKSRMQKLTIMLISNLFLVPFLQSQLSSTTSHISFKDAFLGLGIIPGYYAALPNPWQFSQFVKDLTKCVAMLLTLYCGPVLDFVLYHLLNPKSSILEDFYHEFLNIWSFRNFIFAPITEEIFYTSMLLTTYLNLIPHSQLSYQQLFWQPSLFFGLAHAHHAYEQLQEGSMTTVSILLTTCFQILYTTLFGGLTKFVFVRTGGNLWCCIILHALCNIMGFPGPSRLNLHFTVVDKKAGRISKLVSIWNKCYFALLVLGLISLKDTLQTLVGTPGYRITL
# eIF4H FP inh: inhibitors of RNA binding by human eIF4H; Q15056; eIF4H fluorescence polarization binding assay; inhibition, % at 35 µM; 290,000 compounds, 0.94% hits; AID 2012;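 active means 50% or more with normal probe brightness, or confirmed in later tests; inconclusive means above 50% with abnormal brightness, or retests that disagree; inactive means below 50% or failed in later tests; about a fifth of its hits are not listed in these tables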;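 further: calls also rest on retests at 20 µM and on dose response follow-up; 0% = protein and probe with vehicle and 100% = probe without protein; strong numbers were not always called active; many hits fall short of the cut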
# eIF4H FP inh retest: recorded beside eIF4H FP inh, whose call it bears; inhibition, %; compound at 20 µM; confirmation average;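 mean of two retest wells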
# PABP FP inh retest: also measured in PABP FP inh; calls as there; inhibition, %; compound at 20 µM; confirmation repeats;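 mean of two retest wells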
# MT1-MMP act inh RFP: also measured in MT1-MMP act inh; calls as there; RFP signal change, %; measured here: RFP expression control read;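 0 = vehicle wells; hits needed this value within 50% of zero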
# Starred values were filed as active, the others as inactive; i = inactive; ? = inconclusive; nt = no result given.
SMILES,UUG fidelity,CSC inhib,MT1-MMP act inh,MT1-MMP act inh RFP,PABP FP inh,HIV Env fusion,Rce1 inh,eIF4H FP inh,others
CC(NC(=O)c1cc2ccccc2o1)c1cccs1 (stereo unspecified),-7.7,1.2,5.3,0.1,6.4,nt,i,-7.5,
NNC(=S)Nc1cc(S(=O)(=O)N2CCOCC2)ccc1N1CCOCC1,nt,-14.3,5.2,4.5,32.4,-5.4,i,3.2,
Cc1cc(C)c2nc(-c3cccnc3)cc(C(=O)NC(C)c3cnn(C)c3C)c2c1 (stereo unspecified),-13.4,-1.0,0.2,-0.8,-5.0,-1.7,i,-2.9,
O=C(Nc1ccccc1)c1ccc[nH]1,-6.4,7.5,3.2,3.2,3.5,-10.4,i,10.6,
Cc1ccccc1-n1nc(C)c2cc(C(=O)N3CCN(S(=O)(=O)c4ccc(F)cc4)CC3)sc21,-9.5,-5.8,1.0,-14.3,3.5,37.2,i,2.9,
CC(=O)N1CCN(c2ccc(S(=O)(=O)N3CCOCC3)cc2[N+](=O)[O-])CC1,-3.4,7.7,6.0,0.9,nt,-31.8,nt,nt,
Cc1c(CN2CCC(CO)(Cc3ccccc3)CC2)c2ccccc2n1C,nt,9.5,1.0,0.1,-4.8,-0.6,nt,1.8,
COc1ccc(OC)c(CNS(=O)(=O)c2cc(-c3cc(C)no3)ccc2OC)c1,-18.7,7.1,2.6,3.1,-10.4,3.1,i,-8.2,
CN(C)CCCNC(=O)c1ccc(-c2nc(-c3ccc(Cl)cc3)cs2)cc1,-23.7,99.8*,-9.6,-17.6,-1.5,-234.9,i,-3.4,
Oc1ccc(Br)cc1/C=N/Nc1ncc(-c2ccccc2)cn1,nt,34.1,3.2,-8.9,-11.9,-91.1,i,1.2,
COCc1cc(C)nc2sc(C(=O)NN)c(-n3cccc3)c12,nt,6.0,11.6,4.0,-7.1,5.2,i,-0.7,
Cc1[nH]nc(Nc2ccc(O)cc2)c1[N+](=O)[O-],nt,14.3,4.1,1.2,-6.7,-14.7,i,-0.1,
N#CCOc1ccc(C2=NO[C@@H]3[C@@H]4C[C@@H]([C@H]5C(=O)N(c6ccc7c(c6)OCO7)C(=O)[C@@H]45)[C@H]23)cc1,nt,-0.7,-0.2,4.3,-5.7,-10.4,i,-11.9,
FC(F)(F)c1ccnc(N2CCN(Cc3cnc(-c4ccccc4)[nH]3)CC2)c1,-2.1,8.1,-1.0,-1.9,-1.6,-32.4,i,-0.7,
COc1ccc(-c2nnc(-c3cc4ccccc4oc3=O)o2)cc1,-22.2,-1.8,4.0,-0.8,-11.5,-57.4,i,-5.5,

# Compounds above with a nitro group on carbon:
SMILES,UUG fidelity,CSC inhib,MT1-MMP act inh,MT1-MMP act inh RFP,PABP FP inh,HIV Env fusion,Rce1 inh,eIF4H FP inh,others
CC(=O)N1CCN(c2ccc(S(=O)(=O)N3CCOCC3)cc2[N+](=O)[O-])CC1,-3.4,7.7,6.0,0.9,nt,-31.8,nt,nt,
Cc1[nH]nc(Nc2ccc(O)cc2)c1[N+](=O)[O-],nt,14.3,4.1,1.2,-6.7,-14.7,i,-0.1,

# Other compounds.
SMILES,UUG fidelity,CSC inhib,MT1-MMP act inh,MT1-MMP act inh RFP,PABP FP inh,HIV Env fusion,Rce1 inh,eIF4H FP inh,others
O=C(CSc1nc(O)cc(=O)[nH]1)N1c2ccccc2CCc2ccccc21,nt,-14.5,-2.6,-3.0,16.2,-25.0,i,-7.1,
COc1cccc(-c2coc3cc4oc(=O)c(CC(=O)O)c(C)c4cc23)c1,-13.5,-7.2,-3.0,-2.1,2.1,2.4,i,0.3,
C/C(=N\NC(=O)c1cc(C)nc2ccccc12)c1ccc([N+](=O)[O-])cc1,2.6,-11.6,1.1,-7.6,15.1,11.5,i,-2.1,
O=C(O)CCCCCNc1nc(=S)[nH]c2ccccc12,-16.8,13.5,4.8,5.1,3.5,-9.0,i,-0.6,
N#C/C(=C/c1ccc2c(c1)OCO2)C(=O)NCCc1c[nH]c2ccccc12,nt,7.1,-3.2,-5.4,2.0,nt,i,-5.3,
Cc1cc2c(=O)n(CC(=O)N3CCN(c4ccccc4)CC3)cnc2s1,-11.9,-2.7,1.8,0.2,-4.1,nt,nt,-1.4,
COc1ccc(-n2ncc(Cl)c(Cl)c2=O)cc1,nt,nt,-34.9,-36.4,-1.5,-197.8,i,-9.9,
O=C(O)c1ccccc1C(=O)c1ccc(-c2ccccc2)cc1,-3.0,-5.2,1.2,0.3,-0.6,-27.4,i,-6.3,
CC(C)(C(=O)N1CCC1(C)C(=O)NS(=O)(=O)c1ccccc1Cl)c1ccccc1 (stereo unspecified),-4.4,nt,-0.5,4.6,nt,6.9,nt,nt,
O=c1c(C(c2ccccc2)c2c(O)nc3n(c2=O)CCS3)c(O)nc2n1CCS2,nt,-14.8,3.0,8.6,-9.4,-21.3,i,-2.9,
CC(C)(C)C(=O)NCCN1CCN(C(=O)C(C)(C)C)CC1,nt,-12.3,-8.1,0.5,-1.7,-13.1,i,-12.7,
C/C(=N/NC(=O)CNC(=O)CCc1ccccc1)c1ccc(Cl)c(Cl)c1,nt,-10.3,-0.3,-2.1,-3.4,0.6,i,0.7,
CC(C)n1c(NCc2cc(Cl)ccc2O)nc2ccccc21,-10.4,nt,2.2,-6.7,0.3,-16.2,i,-1.9,
Cc1cc(OCC(=O)Nc2ccc3c(c2)OCCO3)ccc1Cl,-7.4,3.7,-2.4,0.2,-7.7,-28.8,nt,2.9,
Cc1ccc(-n2c(SCC(=O)N3CCOCC3)nnc2-c2ccncc2)cc1,-4.7,-10.3,-0.6,-3.1,3.4,nt,i,-7.1,

# Six entries from above, ordered by formula weight, ascending:
SMILES,UUG fidelity,CSC inhib,MT1-MMP act inh,MT1-MMP act inh RFP,PABP FP inh,HIV Env fusion,Rce1 inh,eIF4H FP inh,others
Cc1cc(OCC(=O)Nc2ccc3c(c2)OCCO3)ccc1Cl,-7.4,3.7,-2.4,0.2,-7.7,-28.8,nt,2.9,
C/C(=N\NC(=O)c1cc(C)nc2ccccc12)c1ccc([N+](=O)[O-])cc1,2.6,-11.6,1.1,-7.6,15.1,11.5,i,-2.1,
N#C/C(=C/c1ccc2c(c1)OCO2)C(=O)NCCc1c[nH]c2ccccc12,nt,7.1,-3.2,-5.4,2.0,nt,i,-5.3,
O=C(CSc1nc(O)cc(=O)[nH]1)N1c2ccccc2CCc2ccccc21,nt,-14.5,-2.6,-3.0,16.2,-25.0,i,-7.1,
O=c1c(C(c2ccccc2)c2c(O)nc3n(c2=O)CCS3)c(O)nc2n1CCS2,nt,-14.8,3.0,8.6,-9.4,-21.3,i,-2.9,
CC(C)(C(=O)N1CCC1(C)C(=O)NS(=O)(=O)c1ccccc1Cl)c1ccccc1 (stereo unspecified),-4.4,nt,-0.5,4.6,nt,6.9,nt,nt,

# Next structures follow.
SMILES,UUG fidelity,CSC inhib,MT1-MMP act inh,MT1-MMP act inh RFP,PABP FP inh,HIV Env fusion,Rce1 inh,eIF4H FP inh,others
Cc1ccnc(-n2c(CCN3C(=O)c4ccccc4C3=O)nc3ccccc3c2=O)c1,-10.2,-5.4,2.2,5.9,-11.8,-38.1,i,7.1,
CCCCN(Cc1ccco1)C(=O)Cn1ncc2c(=O)oc3ccc(C)cc3c21,-9.4,11.6,0.4,0.1,-17.9,-4.3,i,-11.1,
CNS(=O)(=O)c1ccc(Cl)nc1,-14.8,-7.5,1.9,1.3,6.3,nt,i,5.1,
COc1ccc(CNC(=O)CN2C(=O)NC(C)(c3cccc(Br)c3)C2=O)cc1 (stereo unspecified),-10.5,-0.6,-7.1,-4.8,-12.6,15.2,i,-12.6,
O=C(COC(=O)C1CCN(C(=O)c2ccc(Cl)cc2)CC1)Nc1ccccc1F,-13.9,-10.0,-2.7,0.3,nt,12.1,nt,nt,
COc1ccc(-n2c(N)c(C(=O)NCC3CCCO3)c3nc4ccccc4nc32)c(OC)c1 (stereo unspecified),-14.4,nt,5.9,-4.7,9.4,nt,i,11.5,
Cc1ccccc1-n1ncc2c1CC(C)(C)CC2NC(=O)CCN1CCCCC1=O (stereo unspecified),-8.5,-2.9,-2.5,-2.7,-3.2,-5.3,i,-17.8,
Cc1ccc(C(=O)Nn2c(O)c(C=C3N=c4ccccc4=N3)sc2=S)cc1,-2.5,1.0,0.1,2.3,?,-48.0,i,?,
CCc1cc(Cn2nc(-c3ccccc3C)cc2C(=O)O)on1,7.5,-12.8,-2.0,1.7,nt,-146.1,nt,nt,
CCOC(=O)CC1CCCCN1C(=O)c1ccc2nc(CCOC)oc2c1 (stereo unspecified),-6.6,1.1,-10.0,1.3,2.7,-18.6,i,-1.5,
O=C(Nc1ccc(F)cc1)N1CCN(c2ncccn2)CC1,nt,4.5,0.2,-1.0,-2.4,-7.4,i,-1.2,
COc1cc(OC)c(NC(=O)CN(C)S(=O)(=O)c2ccc3[nH]c(=O)oc3c2)cc1Cl,-15.2,-5.3,-0.9,-1.3,8.1,-2.7,i,23.6,
CCOC(=O)Cc1csc(NC(=O)C(CC(C)C)NC(=O)C2CCCCC2)n1 (stereo unspecified),-14.0,5.1,-3.8,-5.2,-1.6,0.4,i,-4.9,
COc1ccccc1NC(=O)c1cccs1,-26.3,2.9,-3.4,2.9,-2.7,-56.9,i,-8.0,
COc1ccc(NS(=O)(=O)c2ccc(N3CCCC3)c(NC(=S)Nc3cccc(C)c3C)c2)cc1,-11.2,-16.5,-3.3,-14.5,7.7,148.7*,i,10.4,
O=S(=O)(NCc1ccccc1Cl)c1cnc[nH]1,14.1,-13.0,-2.4,1.5,-11.6,-41.1,i,0.4,
CCOc1cc(C(c2c(C)[nH][nH]c2=O)c2c(C)[nH][nH]c2=O)ccc1OCc1ccc([N+](=O)[O-])cc1,-5.4,0.6,-0.9,-13.2,3.0,-7.4,i,22.8,
Cc1cc2ccccc2n1CCNC(=O)C1CC1,5.0,5.0,32.5*,37.0*,50.2*,-60.7,i,111.7,eIF4H FP inh retest=22.6;PABP FP inh retest=63.8*
Cc1ccc(S(=O)(=O)Nc2ccc3[nH]c(=O)[nH]c3c2)c(C)c1,nt,10.2,-5.1,-6.7,-6.8,8.2,i,-4.5,
COc1ccccc1N(CCC#N)C(=O)CSc1nnc2ccccn12,-14.0,1.6,0.0,3.0,nt,nt,nt,nt,
Cc1cc(C(F)(F)F)c2c(=O)[nH]c(=O)n(Cc3ccccc3)c2n1,-7.5,3.4,3.7,3.8,-1.2,nt,i,3.4,
CCOC(=O)Nc1nnc(-c2ccc(OC)c(OC)c2)s1,-29.6,-9.1,2.1,4.5,-1.3,nt,i,2.3,
CC(C)(C)c1ccc(C(=O)NC(=S)Nn2cnnc2)cc1,-27.3,7.5,0.7,3.9,17.2,-31.6,i,-11.5,
Cc1onc(-c2ccccc2)c1C(=O)Nc1nnc(COc2ccc(Cl)cc2)s1,-12.2,10.0,3.2,-0.7,9.4,nt,i,-11.3,
